UCH37 DUB inh = human UCH37 deubiquitinating enzyme inhibition | Q9Y5K5 | inhibition, % (test concentration not listed) | purified proteasome/UCH37, Ub-AMC cleavage fluorescence | 330,000 compounds, 0.33% hits;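 active = mean of two replicates above 20%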;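 also: 0% = compound-free wells with enzyme and 100% = wells lacking proteasome; stock transfer was 100 nL into about 20 µL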
Target sequence (Q9Y5K5 whole entry, looked up): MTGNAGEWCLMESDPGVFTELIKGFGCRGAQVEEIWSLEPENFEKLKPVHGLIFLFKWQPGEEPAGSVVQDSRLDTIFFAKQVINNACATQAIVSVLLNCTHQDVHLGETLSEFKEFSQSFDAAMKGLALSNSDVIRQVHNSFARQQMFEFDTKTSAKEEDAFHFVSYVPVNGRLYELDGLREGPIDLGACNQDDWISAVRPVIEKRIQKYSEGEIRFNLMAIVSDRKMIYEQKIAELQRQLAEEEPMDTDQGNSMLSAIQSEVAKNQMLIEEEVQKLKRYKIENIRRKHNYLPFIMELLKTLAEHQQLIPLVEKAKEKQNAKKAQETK
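System: Proteasome-associated human UCH37 deubiquitinase; Input: 0.15 nM proteasome in added enzyme buffer; Also added: Ub-AMC substrate from 1 µM stock; Incubation: 30 min compound-proteasome preincubation then 25 min substrate reaction, room temperature; Detection: fluorescence, ex 355 nm, em 460 nm; Read-out: % inhibition of Ub-AMC cleavage fluorescence; Benchmarks: no-proteasome and no-compound wells.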
Beta2AR agonist = activates human beta-2 adrenergic receptor causing internalization | P07550 | Am2.2-beta2AR cells, FAP receptor internalization, flow cytometry; reference of the scale not given here | response, % (test concentration not listed) | 340,000 compounds, 0.43% hits | AID 504454;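 active = response above a set limit, near 3 SD of response in nonfluorescent compounds, cut at about 42% in these data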;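 also: stock transfer was 100 nL into about 11 µL; a reference agonist was the positive control; negative values mostly stem from fluorescent compounds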
Target sequence (P07550 whole entry, looked up): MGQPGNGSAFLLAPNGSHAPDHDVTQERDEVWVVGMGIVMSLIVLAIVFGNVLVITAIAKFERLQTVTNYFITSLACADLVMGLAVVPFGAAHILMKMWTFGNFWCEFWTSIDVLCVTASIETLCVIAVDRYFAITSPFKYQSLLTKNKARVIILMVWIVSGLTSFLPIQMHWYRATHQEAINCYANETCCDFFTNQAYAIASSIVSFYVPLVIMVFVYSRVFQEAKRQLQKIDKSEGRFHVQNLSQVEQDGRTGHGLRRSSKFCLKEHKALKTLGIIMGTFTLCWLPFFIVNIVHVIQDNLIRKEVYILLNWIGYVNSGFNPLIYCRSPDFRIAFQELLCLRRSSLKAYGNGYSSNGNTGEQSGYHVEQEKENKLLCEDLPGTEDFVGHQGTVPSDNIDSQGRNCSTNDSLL
RanGTP-Impb inh = inhibitors of RanGTP-importin-beta interaction, primary screen, biochemical, FRET, CFP-Ran, YFP-importin-beta, homogeneous. cell-free CFP-Ran/YFP-importin-beta FRET ratio. inhibition, % (test concentration not listed). 300,000 compounds, 1.1% hits. AID 2216;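 active = most replicates above 15%; inconclusive = exactly half above 15%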;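 also: 0% = DMSO wells and 100% = Ran loaded with GDP instead of GTP; wells of about 40 µL received 100 nL stock; the first replicate is given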
Calb FLC = affects C. albicans growth with fluconazole. C. albicans CaCi-2 (fluconazole-resistant clinical isolate) + fluconazole, Alamar Blue growth, 48 h. growth inhibition, % (test concentration not listed). 300,000 compounds, 0.57% hits. AID 1979;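 active = most replicates above 75%; inconclusive = exactly half above 75%; inactive = most below 75%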;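 also: all wells also contain fluconazole at 8 µg/ml as a sub-toxic cotreatment; 0% = median of DMSO wells and 100% = median of geldanamycin control wells; wells of about 8 µL received 7.5 nL stock; the first replicate is given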
Bfl-1 A1 inh = inhibitors of the anti-apoptotic protein A1, read as caspase activation | MEF A1-2A-BIM cells, Caspase-Glo 3/7 luminescence, 3 h; percent of clofoctol response, vehicle zero | caspase activation, % (concentration not given with the values) | 330,000 compounds, 0.066% hits | AID 2462;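 active = over half of replicate activation scores above 10%, or exactly half above 10 with the replicate mean above 10; inconclusive = replicate mean below 10 yet half the replicates above 10; inactive = over half of replicates below 10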;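 also: wells of about 30 µL received 50 nL stock; many hits fall short of the cut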
T cruzi repl = T. cruzi replication inhibition; T. cruzi beta-gal in NIH3T3, luminescence, 90 h; inhibition, % (concentration not given with the values); 300,000 compounds, 1.4% hits; AID 1885;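 active = mean inhibition across valid replicates above about 55%, limit read from the data; inconclusive = mean below that limit but half or more replicates reach it; inactive = mean below it, under half of replicates reach it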;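 also: signal also drops with host cell toxicity which is not excluded here; 0% = plate median of DMSO wells and 100% = zero luminescence signal; higher percent means less beta-gal luminescence so fewer parasites; stock transfer was 50 nL into about 50 µL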
Beta apoptosis = beta cell apoptosis inhibition; INS-1E cytokine-induced death, ATP luminescence, 48 h; percent of positive-control rescue, neutral wells zero; protection from apoptosis, % (test concentration not listed); 300,000 compounds, 0.8% hits;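 active = all replicates at 75% or more, or half of them and the mean; inconclusive = half reach 75% but not the mean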;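 also: 0% = cytokine-treated negative control wells and 100% = positive control rescue; higher means more ATP so stronger rescue from cytokine killing; wells of about 40 µL received 100 nL stock; the first replicate is given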
LANA-H2A inh = blocks KSHV LANA binding to histone H2A/H2B; Q9QR71; cell-free LANA-H2A/H2B peptide, fluorescence polarization; inhibition, % (test concentration not listed); 320,000 compounds, 0.6% hits; AID 2629; in the data active = inhibition mostly above about 10%, no sharp cut-off; inactive = mostly below about 6.7%;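 also: stock transfer was 7.5 nL into about 10 µL; 0% = median of vehicle wells and 100% = median of positive control wells; one replicate is shown; the record names a cut of 25% in any replicate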
* hit, by the source's call; i = inactive; ? = inconclusive; . = no result given; & = joins results of further samples.

SMILES	UCH37 DUB inh	Beta2AR agonist	RanGTP-Impb inh	Calb FLC	Bfl-1 A1 inh	T cruzi repl	Beta apoptosis	LANA-H2A inh
COC(=O)C1=CN(Cc2ccccc2)C=C(C(=O)OC)C1c1cc(F)ccc1F	i	5.8	23.8*	1.6	-0.7	19.8	5.7	2.4
CC1=C(C(=O)OC(C)C)C(c2c[nH]c3ccccc23)n2ncnc2N1 (stereo not given)	5.2	-4.4	1.7	11.3	0.3	12.1	-14.6	7.7
C#CCOC(=O)/C(=C/c1ccc(F)cc1)NC(C)=O	-0.8	-8.7	1.3	0.3	-0.2	-45.2	-0.8	.
COc1ccc(/C=C(\C#N)C(=O)OCC(=O)Nc2ccc(-c3nc4ccc(C)cc4s3)cc2)cc1	-50.2	0.6	-1.9	-5.1	-6.2	10.1	0.8	-4.3
Nc1nnnn1/N=C/c1cc(Cl)ccc1O	.	-0.6	-60.2	0.0	0.5	-1.1	-4.7	3.4
COc1ccc(N2CCN(C(=O)c3oc4ccccc4c3NC(=O)Cc3cccc(OC)c3)CC2)cc1	1.5	-4.4	-0.3	3.5	-0.4	-3.4	7.3	-0.9
CCCCC/C=C/C1=CC(=O)C[C@H](c2ccc3c(c2)OCO3)C1	5.2	-0.9	.	.	0.4	.	1.8	-6.9
COc1ccc2c(Cl)c(C(=O)NN3CCN(C)CC3)sc2c1	1.9	2.6	5.2	17.8	0.4	?	4.6	0.2
Cc1cccn2c(=O)nc(SCC(=O)Nc3cccc4ccccc34)nc12	4.1	3.4	4.4	13.1	0.4	-4.4	-2.3	-3.8
CCOC(=O)c1ccc(N(C(=O)c2ccco2)C(C(=O)NC2CCCC2)c2ccncc2)cc1 (stereo not given)	0.5	3.5	3.5	8.9	1.0	5.6	4.6	-1.4
CNC(=O)/C=C1\NC(C)(C)Cc2ccccc21	7.4	1.6	2.2	-1.4	-0.4	3.8	-4.5	-5.8
Cc1ccccc1CN1CCNC(=O)C1CC(=O)N(C)CCC1CCOCC1 (stereo not given)	-21.1	9.9	4.0	-2.2	-0.8	0.9	0.7	-2.9
CC(C)(CNC(=O)c1cc2c(s1)CCCC2)N1CCOCC1	1.0	5.9	8.3	5.7	0.9	1.5	.	-1.1
CCc1ccccc1NC(=O)CCS(=O)(=O)c1ccc(OC)cc1	3.8	11.9	-2.2	-8.1	0.4	-6.9	.	-1.1
CCCCN(c1ccccc1)S(=O)(=O)N(C)C	4.1	-2.2	?	16.4	0.1	-7.0	-2.2	3.1
CN(CC(=O)Nc1ccc(F)cc1)C(=O)c1cccc(NS(=O)(=O)c2ccccc2)c1	2.1	-1.2	.	.	0.3	.	-3.4	3.1
O=C(CSc1nnc(-c2ccccn2)n1Cc1ccco1)Nc1ccc2c(c1)OCO2	0.9	5.9	-2.5	12.6	0.7	-2.2	-3.4	3.9
Cc1cc(=O)n(CC(=O)Nc2cc(Cl)ccc2C)c(C(C)C)n1	1.4	3.2	-2.4	-6.6	1.2	-5.4	4.6	-1.1
O=C(O)c1ccccc1-c1c2cc(I)c(=O)c(I)c-2oc2c(I)c(O)c(I)cc12	10.7	-2.6	.	.	-0.4	.	16.4	-90.0
CC(=O)Nc1c(O)n(C)c2ccccc12	0.9	10.5	2.4	3.6	-0.4	-11.2	-2.0	2.2
CC(=O)N1CCN(C2=NC(=O)C(=C3CCCCC3)S2)CC1	-1.1	1.7	1.3	12.8	-0.2	-12.3	-3.2	-1.1
CC(C)c1nnc(NC(=O)C2CCN(c3nc4ccccc4s3)CC2)s1	-3.6	1.4	-4.3	-28.3	-0.2	43.7	0.0	-5.5
CCCCN(C1CCS(=O)(=O)C1)S(=O)(=O)c1cc(C)ccc1C (stereo not given)	-0.4	-2.6	4.6	-1.0	-0.2	-2.8	-0.9	-2.3
O=C(CSc1nc2ccccc2nc1N1CCOCC1)N1CCN(c2ccccc2)CC1	3.7	0.1	-1.2	-2.3	-0.2	7.2	3.5	-1.5
CC1(C(=O)Oc2ccccc2)Cc2ccccc2C(=O)O1 (stereo not given)	2.0	7.1	-0.7	-9.2	0.5	-12.3	-2.8	1.1
CCOC(=O)[C@H](CCc1ccccc1)N[C@@H](C)C(=O)N1CCC[C@H]1C(=O)O	-4.1&2.6	9.2&2.9	4.5	.	-0.5&-0.7	-23.1	2.2&-7.3	-22.3&-3.1
c1ccc(NCc2nnc3n2CCCCC3)cc1	0.6	-3.2	-2.0	-6.5	0.3	-0.6	-3.2	4.5
O=C(C1CCN(S(=O)(=O)c2cccc3nsnc23)CC1)N1CCN(c2ccccc2F)CC1	3.4	-2.1	-2.0	2.8	1.1	-3.5	-4.1	9.5
Cc1onc(-c2c(Cl)cccc2Cl)c1C(=O)Nc1ccc2c(c1)OCO2	7.3	-2.2	-5.4	6.4	-0.8	6.9	-8.6	-2.6
O=C(Nc1nnc(-c2ccc3c(c2)OCCO3)o1)c1ccc(Cc2ccccc2)cc1	-6.9	-0.9	-3.1	3.0	.	-21.2	.	.
Cc1ccc2c(CC(=O)Nc3ccc(F)c(S(=O)(=O)N4CCOCC4)c3)coc2c1	2.5	-6.9	.	.	0.0	.	-2.8	0.6
O=C1CCCC(O)=C1C1C2=C(CCCC2=O)Oc2ccccc21 (stereo not given)	2.4	6.9	0.6	9.0	-1.4	-10.1	0.0	0.8
CC(C)C(NC(=O)c1c(F)cccc1F)C(=O)NCC(c1ccccc1)N(C)C (stereo not given)	0.6	1.0	1.4	8.1	0.9	18.6	-4.5	-1.1
O=C(NNC(=O)c1nn(-c2ccc(F)cc2)ccc1=O)c1ccc(Cl)cc1	4.8	-1.3	13.0	-10.4	1.2	.	.	-6.5
O=C(O)c1cccc(NS(=O)(=O)c2ccc(S(=O)(=O)N3CCOCC3)cc2)c1	0.6	-3.4	2.4	3.8	.	-15.0	.	.
CC1(C)Cc2ccccc2C2=NNC(=O)C2=N1	i	2.1	-2.6	46.0	0.1	50.3	-27.4	-3.2
COc1cc(CN2CC(C)OC(C)C2)cc(OC)c1 (stereo not given)	1.7	-5.9	-0.5	-3.9	-0.2	0.9	-7.1	0.7
Cc1cc2c(c(SCC(=O)Nc3ccc(C)c(C)c3)n1)C(=O)OC2	1.8	-5.0	-1.0	31.7	1.0	-12.8	.	-4.7
COc1ccc(C(=O)/C=C/c2ccc(O)cc2)c(O)c1CC=C(C)C	-0.2	4.8	2.2	2.6	-1.6	12.9	14.8	2.9
Cn1ccc(NC(=O)c2ccc([N+](=O)[O-])cc2)n1	3.0	7.1	.	.	-0.1	.	-5.9	-3.1
COc1ccc(NC(=O)Nc2cccc([N+](=O)[O-])c2)cc1Cl	5.5	9.0	3.7	-4.0	-1.4	26.9	59.3	6.7
O=C(CSc1nnc2c(Cl)cc(C(F)(F)F)cn12)NCc1ccc(F)cc1	4.2	-9.4	-0.1	-0.1	0.6	-6.2	-1.4	5.1
CC(C)COC(=O)/C(C#N)=C/c1cn(Cc2ccccc2)c2ccccc12	1.6	-6.1	-9.2	-6.7	-0.4	-3.9	-8.7	-3.6
CC1=C/C(=N\N=C2\NC(=O)C(CC(=O)Nc3ccccc3F)S2)CC(C)(C)C1 (stereo not given)	.	23.5	0.7	3.5	0.6	-16.8	-2.1	3.8
O=C(O)CC1(CC(=O)NCc2ccc(C(F)(F)F)cc2)CCCCC1	0.7	-0.9	6.9	0.9	0.5	-8.6	4.3	-5.8
O=C(NNC(=O)C12CC3CC(CC(Cl)(C3)C1)C2)c1ccncc1	4.3	-4.8	-0.8	-11.5	0.2	-5.8	-6.9	.
CC(C)OC(=O)CSc1nnc(-c2ccco2)n1N	-1.0	-4.1	4.5	25.0	0.5	14.2	-0.4	-1.8
Cc1cc(Br)c(NC(=O)CSc2n[nH]c(N)n2)c(Br)c1	3.0	-7.2	.	.	-0.6	.	-2.8	4.2
COc1ccc(C(=O)CCc2ccccc2O)c(OC)c1	0.8	10.2	1.8	19.3	-3.5	-12.8	-0.6	1.8
COC(=O)C1=CN(Cc2ccc(OC)cc2)C=C(C(=O)OC)C1c1ccc(O)c(OC)c1	.	-3.6	18.3*	-25.3	-0.4	11.3	.	-1.3
Cc1ccc(C(=O)NCCN2CCNC2=O)cc1	5.8	8.1	0.4	0.3	?	-7.8	-7.8	1.8
CN(C)c1ccnc(N(Cc2ccccc2)Cc2ccccc2)c1C#N	4.9	9.3	2.8	23.1	0.0	14.1	-4.5	-0.9
CCc1ccccc1NC(=O)C1NC(=O)CC1c1ccccc1 (stereo not given)	5.8	0.1	6.4	5.1	0.1	-7.2	-5.5	3.1
CCOc1ccc(C(O)c2nccn2Cc2ccccc2)cc1 (stereo not given)	2.2	6.9	3.1	1.5	-0.7	-6.7	-5.6	-3.1
COc1cc(C(C(=O)NC2CCCC2)N(C(=O)c2ccco2)c2ccccc2C(C)=O)cc(OC)c1OC (stereo not given)	4.2	2.2	-2.9	-2.6	0.3	3.5	-7.4	-3.9
CC(C)CN(CC(C)C)C(=O)C12CCC(C)(C(=O)C1)C2(C)C (stereo not given)	3.2	6.3	-3.4	-1.7	-0.5	-8.8	-0.5	-0.5
CC(C)(C)C(=O)NC1CCN(S(=O)(=O)c2ccccc2F)CC1	-1.3	5.2	-0.6	22.9	0.7	-1.7	-3.8	-1.3
CCOC(=O)N1CCN(C(=O)c2cc(S(=O)(=O)N3CCCC3)cn2C)CC1	0.9	3.4	-1.4	8.7	-0.2	-4.4	.	14.7
Cc1ccc2c(c1)C1CN(C)CCC1N2C(=O)c1ccccc1NS(=O)(=O)c1ccc(F)cc1 (stereo not given)	5.5	-0.2	4.2	0.2	0.2	40.1	-8.6	1.8
CC1Cc2ccccc2N1CC(=O)Nc1ccc(Cl)c(S(=O)(=O)N(C)C)c1 (stereo not given)	2.1	-5.1	2.3	0.6	0.0	-4.0	1.4	-1.7
Other structures.
SMILES	UCH37 DUB inh	Beta2AR agonist	RanGTP-Impb inh	Calb FLC	Bfl-1 A1 inh	T cruzi repl	Beta apoptosis	LANA-H2A inh
CCOc1ccc(-c2cccc(NS(=O)(=O)c3cc([N+](=O)[O-])ccc3C)c2)nn1	2.1	0.3	-1.3	-3.6	-4.8	11.4	.	-4.7
CN1CCN(c2oc(-c3ccco3)nc2S(=O)(=O)c2ccccc2)CC1	6.2	-1.7	-1.3	6.8	0.4	2.4	3.8	-0.4
Cc1cc(C(=O)CN(Cc2ccc(F)cc2)S(=O)(=O)c2ccc3c(c2)OCCO3)c(C)n1C	2.2	-15.9	8.3	6.1	0.8	20.6	-9.5	4.3
COc1ccc(NC(=O)C2CCN(C(=O)NCc3ccccc3)CC2)cc1	-0.1	3.2	0.7	16.0	0.1	-6.2	2.5	-7.0
Cc1ccc(OCC(=O)Nc2ccc3c(c2)nc(CCN2CCN(C)CC2)n3C)cc1	5.2	1.0	0.6	-2.5	0.4	50.1	0.0	1.3
O=C(C[N+]1(CC#Cc2ccccc2)CCCCC1)c1ccccc1	1.7	0.0	-0.8	-36.7	-0.3	22.0	-2.9	-0.2

Bioassay records from PubChem.
